# UCH37 inh: human UCH37 deubiquitinating enzyme inhibition | Q9Y5K5 | purified proteasome/UCH37, Ub-AMC cleavage fluorescence | inhibition, % (no concentration beside the values) | 0.33% of 330,000 active;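 active = mean of two replicates above 20%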;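 also: 0% = compound-free wells with enzyme and 100% = wells lacking proteasome; stock transfer was 100 nL into about 20 µL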
#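 Schedule: 30 min plus 25 min, room temperature / Material: human UCH37 within purified proteasomes / Technique: AMC fluorescence intensity at 355/460 nm / Buffer or medium: pH 7.4 Tris-HCl (50 mM) with ovalbumin, ATP-MgCl2, DTT / Controls: wells without proteasome as full block, compound-free enzyme plus substrate as uninhibited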
# Ecoli growth: blocks Escherichia coli growth | OD600 absorbance (concentration not given with the values) | OD600, 23 h; hits give low values | AID 1053175 | 0.21% of 330,000 active;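 active = OD600 absorbance below the run mean of sample wells minus 3.6 SD, in any replicate, cut at about 0.56 in these data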;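 also: stock transfer was 300 nL into about 60 µL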
# HNF4A DNA FP: change in binding of human HNF4 alpha to DNA; P41235; HNF4a-FITC DNA binding, fluorescence polarization, 1 h; activity change, % at 10 µM; 0.3% of 360,000 active; in the data active = activity change above about 30%, passing the limit was not always enough;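 also: controls were the assay level and a saturating level of protein; the project sought stronger binding though the title names inhibitors; some compounds called inactive have numbers as strong as hits; positive values seem to mean higher polarization but the record does not say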
# LANA-H2B inh: blocks KSHV LANA binding to histone H2A/H2B. Q9QR71. cell-free LANA-H2A/H2B peptide, fluorescence polarization. inhibition, % (concentration not given with the values). 0.6% of 320,000 active. AID 2629; in the data active = inhibition mostly above about 10%, no sharp cut-off; inactive = mostly below about 6.7%;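 also: stock transfer was 7.5 nL into about 10 µL; 0% = median of vehicle wells and 100% = median of positive control wells; one replicate is shown; the record names a cut of 25% in any replicate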
# FGF22 binding: binders of recombinant human FGF22 by thermal shift; Q9HCT0; SYPRO orange fluorescence; percent of sucrose octasulfate shift, DMSO zero; calls only at 9.99 µM; 1.5% of 340,000 active; AID 651658;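 active = melting point raised past a set limit in the mean and every replicate; three in four hits are not shown here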
# Target sequence (Q9HCT0 whole entry, looked up): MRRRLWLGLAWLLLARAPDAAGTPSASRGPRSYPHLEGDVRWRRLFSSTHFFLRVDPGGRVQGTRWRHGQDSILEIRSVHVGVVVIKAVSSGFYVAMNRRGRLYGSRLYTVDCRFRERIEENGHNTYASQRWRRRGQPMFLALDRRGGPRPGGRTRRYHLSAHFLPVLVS
# ALR inh: human ALR oxidase inhibition via reduced H2O2. 3.8% of 290,000 active. inhibition, % (concentration not given with the values). AID 485317. purified ALR, DTT oxidation, H2O2 HRP-luminol luminescence. P55789;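 active = mean and each replicate at 75% or more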;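 also: stock transfer was 7.5 nL into about 7.5 µL; 0% = neutral wells and 100% = wells with inactivated enzyme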
# Target sequence (P55789 whole entry, looked up): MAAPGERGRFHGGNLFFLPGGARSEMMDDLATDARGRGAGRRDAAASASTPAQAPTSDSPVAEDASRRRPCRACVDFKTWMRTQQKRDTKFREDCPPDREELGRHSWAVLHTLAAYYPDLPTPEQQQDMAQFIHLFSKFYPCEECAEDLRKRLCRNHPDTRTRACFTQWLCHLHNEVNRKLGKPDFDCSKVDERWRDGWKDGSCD
# Beta2AR agonist: human beta-2 adrenergic receptor agonism by FAP | Am2.2-beta2AR cells, FAP receptor internalization, flow cytometry; reference of the scale not given here | response, % (test concentration not listed) | 0.43% of 340,000 active | AID 504454;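 active = response above a set limit, near 3 SD of response in nonfluorescent compounds, cut at about 42% in these data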;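 also: stock transfer was 100 nL into about 11 µL; a reference agonist was the positive control; negative values mostly stem from fluorescent compounds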
# Target sequence (P07550 whole entry, looked up): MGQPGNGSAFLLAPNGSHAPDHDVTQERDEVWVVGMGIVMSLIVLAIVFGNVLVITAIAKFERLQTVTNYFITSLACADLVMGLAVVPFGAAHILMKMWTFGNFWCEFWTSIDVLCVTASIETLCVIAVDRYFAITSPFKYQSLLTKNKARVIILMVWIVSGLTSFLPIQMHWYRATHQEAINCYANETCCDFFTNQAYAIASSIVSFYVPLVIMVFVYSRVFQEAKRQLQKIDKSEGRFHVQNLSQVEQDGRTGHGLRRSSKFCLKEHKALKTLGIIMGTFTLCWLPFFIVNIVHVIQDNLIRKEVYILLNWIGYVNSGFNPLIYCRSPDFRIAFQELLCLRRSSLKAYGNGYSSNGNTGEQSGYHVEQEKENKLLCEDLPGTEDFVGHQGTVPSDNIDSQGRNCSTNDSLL
# * marks the source's active call; other numbers are inactive results; i = inactive; . = no result given. Only part of the results is shown; rates above refer to the full screens.
SMILES,UCH37 inh,Ecoli growth,HNF4A DNA FP,LANA-H2B inh,FGF22 binding,ALR inh,Beta2AR agonist
O=C(Nc1cccc2cccnc12)c1ccc(Cl)cc1,2.2,0.68,2.4,-0.5,i,0,9
O=C(CN(Cc1ccc2c(c1)OCO2)C(=O)CNS(=O)(=O)c1ccccc1)NCc1ccco1,4.8,0.75,-4.0,0.1,.,5,-7
CN1C(=O)SC(Nc2ccccc2)C1=O (centres undefined),3.0,0.71,-2.2,-3.2,.,17,-5
COc1ccc(-c2cc(-c3ccco3)[nH]c(=O)c2C#N)cc1,-78,0.73,-2.5,12,i,-5,0
COc1cc2[nH]c(C(=O)N(C)Cc3ccccc3)cc2c(OC)c1OC,0.8,0.68,5.0,-7.2,i,-3,0
CC(NC(=O)c1cc2c(s1)CCCC2)C(C)(C)C (centres undefined),3.3,0.66,1.5,-23,.,-2,4
Cc1ccc(/C=C/C(=O)Nc2cc(S(=O)(=O)N3CCOCC3)ccc2N2CCOCC2)cc1,4.5,0.69,1.0,-0.9,i,-1,-1
COc1cc(SC)ccc1C(=O)NC1CCCc2ccccc21 (centres undefined),4.8,0.68,0.9,-0.3,i,-7,30
CCC(CC)C(=O)OCC(=O)Nc1cccc(S(=O)(=O)N(C)c2ccccc2)c1,2.8,0.67,3.2,-2.7,i,-11,-8
Cc1cc(OCC(=O)NN2C(=O)c3ccccc3C2=O)ccc1Cl,2.1,0.66,-5.2,2.4,i,-4,0
COc1ccc(Oc2nccc(OC)c2C#N)cc1,1.7,0.71,2.1,5.1,i,-7,-5
C=CCNC(=O)c1onc(CSc2ccc(Cl)cc2)c1C(=O)NCC=C,0.4,0.64,-0.1,1.6,.,-4,-3
O=C(N/N=C/c1cccc([N+](=O)[O-])c1)c1cc2ccccc2o1,.,.,-1.9,2.3,i,-4,8
COc1ccc(OC)c(NC(=S)N2CCC(C(O)(c3ccccc3)c3ccccc3)CC2)c1,4.1,0.67,0.7,2.1,.,-49,-1
CCCCN(Cc1cc2ccccc2[nH]c1=O)S(C)(=O)=O,-16,0.72,-1.9,-0.1,.,-2,-10
CO/N=C/c1ccc(Sc2ccc(C)cc2)c([N+](=O)[O-])c1,.,.,-2.6,-2.5,.,-11,7
CN1CCN(S(=O)(=O)c2ccc(NC(=O)c3ccccc3Cl)cc2)CC1,.,.,-0.9,3.3,i,-6,4
COc1ccc([N+](=O)[O-])cc1NC(=O)c1cccs1,4.3,0.64,1.5,-9.3,.,-2,-11
CNC(=S)NNC(=O)c1ccc(C(C)(C)C)cc1,4.8,0.64,-5.2,5.7,i,1,0
CCn1c(N2CCN(CC(=O)c3c(C)n(C)c4ccccc34)CC2)nc2c1c(=O)[nH]c(=O)n2C,2.4,0.66,3.8,-2.2,.,1,-6
NS(=O)(=O)c1ccc(CCNCc2cc(Br)ccc2OCc2ccccc2F)cc1,4.8,0.67,-1.6,2.5,.,-18,17
Cc1cc(C)cc(OCC(=O)Nc2ccccc2C(=O)NCc2ccco2)c1,0.6,0.74,-1.5,-1.9,.,.,-6
O=C(CCCn1c(=O)c2ccccc2n(CC(=O)NCc2ccco2)c1=O)NCc1ccco1,0.9,0.73,-1.9,-10,.,3,3
CCCc1nn(C)c(C(=O)Nc2ccc3ccccc3c2)c1Cl,-20,0.71,-1.5,3.2,.,-8,6
Cc1ccc(Oc2ccccc2/C=N/O)cc1,.,.,-1.9,-5.4,.,24,2
CCC(CC)NC(=O)c1ccc(NS(=O)(=O)c2ccc3[nH]c(=O)[nH]c3c2)cc1,-1.5,0.74,4.0,-0.9,i,1,4
CCOc1ccc(CCNC(=O)COC(=O)c2cccc(S(=O)(=O)N3CCOCC3)c2)cc1OCC,-1.6,0.63,3.3,3.4,i,-5,5
CC1CCN(C(=O)C(=O)Nc2sc3c(c2C(N)=O)CC(C)(C)OC3)CC1,6.4,0.71,1.1,3.5,i,2,2
CCN1CCN(C(=O)c2cc(-c3ccco3)nc3ccccc23)CC1,i,0.72,-3.9,-0.8,i,0,-8
C=CCn1c(SCC(=O)NCc2ccccc2)nnc1C1CCCCC1,-3.3,0.7,1.1,-2.5,.,-10,-9
CN(CC(=O)Nc1ccc(F)c(F)c1F)C(=O)c1ccc(-n2cncn2)c([N+](=O)[O-])c1,1.3,0.7,-1.2,0.1,i,-115,-5
O=C(COC(=O)c1nc(Cl)ccc1Cl)c1ccc[nH]1,6.3,0.62,1.7,0.7,i,.,4
O=C1CCS/C(=N\N=C\c2ccc(Cl)cc2Cl)N1,.,.,0.3,-0.6,i,-6,-8
CCOC(=O)N1CCN(C(=O)c2cc3c(=O)n4ccccc4nc3s2)CC1,i,0.72,-1.0,-6.4,i,-5,-7
O=C(CCCSc1nc2sc3c(c2c(=O)[nH]1)CCC3)NCCCO,-7.6,0.62,-1.7,11,i,-6,-4
Cc1ccc(-c2nnc(N)s2)cc1,-4.5,0.65,-0.9,0.4,.,-5,3
CSc1ccc(Cl)c(C(=O)NCCOc2cc(C(C)C)ccc2C)c1,-0.3,0.71,2.6,-6.0,.,-22,4
CC(=Nc1ccc(C)cc1)c1sc2ccccc2c1O,3.7,0.63,14,-5.1,.,4,1
Cc1c(Cl)cccc1NC(=O)c1ccc(-n2ccnc2)nc1,0.3,0.72,1.6,2.8,.,-2,8
CC(=O)c1ccc(NC(=O)[C@@H]2CCCN2C2=NS(=O)(=O)c3ccccc32)cc1,5.7,0.69,1.9,-1.7,i,0,-7
C=CCC(=O)N1CCCC(CNC(=O)c2ccc(-c3ccccc3)cc2)C1 (centres undefined),3.8,0.65,2.6,-8.5,i,-10,0
Cc1ccc(OCC(=O)NCCNC(=O)COc2ccc(C)cc2)cc1,4.0,0.7,2.1,5.8,i,-3,1
CCn1nccc1C(=O)Nc1ccc(C(=O)OC(C)C)cc1,4.3,0.69,-3.6,-4.2,i,-4,-2
CC#CCN(Cc1ccco1)C(=O)C1CCC(=O)N(Cc2ccccc2F)C1 (centres undefined),-1.5,0.69,0.1,7.9,i,-3,-2
CCN(CC)S(=O)(=O)c1ccc2[nH]c(=O)[nH]c2c1,0.0,0.68,0.5,-6.5,.,-11,0
O=C(CCNC(=O)C1CCN(S(=O)(=O)c2ccc(F)cc2)CC1)NCc1ccc(Cl)cc1,5.3,0.73,0.6,-4.6,i,-10,4
O=[N+]([O-])c1ccccc1-n1cnc2ccccc21,4.4,0.67,-3.6,2.4,i,-22,3
Cc1cccc(COCCN2CCN(S(=O)(=O)c3ccccc3)CCC2=O)c1,0.3,0.62,4.5,6.5,i,2,-2
C=CCn1c(SCC(=O)Nc2ccc3c(c2)OCCO3)nc2cc(C(=O)O)ccc2c1=O,2.0,0.65,0.7,0.9,i,-3,-4
O=C(CN1CCC(n2nnc3cc(C(F)(F)F)ccc32)CC1)N1CCc2ccccc21,3.8,0.62,8.4,-1.2,.,-5,-17

# The listing continues:
SMILES,UCH37 inh,Ecoli growth,HNF4A DNA FP,LANA-H2B inh,FGF22 binding,ALR inh,Beta2AR agonist
COc1ccc(OC)c(CNC(=O)COc2cc(=O)n(C)c3ccccc23)c1,0.0,0.68,2.0,0.9,.,-10,-5
Cc1cc(C)c2c(N)c(C(=O)c3cccc(Cl)c3)sc2n1,-38,0.7,-2.3,.,i,.,-22
CCCCc1c(C)c2ccc(OCC(C)=O)cc2oc1=O,-90,0.73,3.0,1.2,.,-8,6
COC(=O)C1=C(C)N(c2cccc(OC)c2)C(=O)/C1=C\c1ccco1,2.8,0.66,1.1,-2.0,i,0,-3
CCc1ccc(NC(=O)CS(=O)CC(=O)Nc2ccc(-n3cnnn3)c(C)c2)cc1 (centres undefined),3.3,0.62,0.5,4.4,i,-3,-1
COc1cc(OC)c(C(=O)OCC(=O)Nc2ccc(N3CCOCC3)cc2)cc1OC,4.3,0.72,-0.9,3.5,i,-5,-3
CC(CN1CCOCC1)OC(=O)c1ccc2c(c1)OCCO2 (centres undefined),-3.8,0.75,-1.7,4.2,.,-10,-1
CCN(CCO)C(=O)C(c1ccccc1)c1ccccc1,-0.1,0.78,0.4,-3.3,.,-2,7
CC(C)C[C@H]1CN=C(N(C)C)N1CCc1cccc(F)c1,-0.5,0.78,-0.1,0.9,i,4,4
C[C@H](CO)NC(=O)[C@H](C)[C@H]1C[C@]1(C)[C@H](NC(=O)OCc1ccccc1)c1ccccc1,0.8,.,2.1,5.2,i,-1,-7
Cc1ccc(/C=C/C(=O)N2CC(C)CC(C)C2)o1 (centres undefined),5.3,0.7,-4.1,-2.2,.,15,5
C#CCNC(=O)C1=C[C@H](c2ccc(Br)cc2)C[C@H](OCc2ccc(CO)cc2)O1,0.5,.,1.1,-4.6,i,-13,-4
CCc1ccc(S(=O)(=O)/N=C2/C=C(Sc3ncn[nH]3)C(=O)c3ccccc32)cc1,.,.,-3.1,1.0,.,-57,55*
O=C(CCCc1ccccc1)Nc1ccc(S(=O)(=O)N2CCOCC2)cc1,2.5,0.72,6.1,-3.3,i,-5,-11
CCN(CC(=O)Nc1ccccc1C(F)(F)F)C(=O)c1ccc2c(c1)NC(=O)CS2,2.3,0.72,-2.5,.,i,.,-3
CN(C)S(=O)(=O)Nc1cccc(Br)c1,2.5,0.71,4.6,-4.0,i,-4,4
Cc1ccc(OCCn2cc(/C=N/NC(=O)c3ccncc3)c3ccccc32)cc1,.,.,3.0,13,.,-4,.
CN(CCc1ccccc1)C(=O)c1ccc(NC(=O)Cc2cccc(NC(=O)C3CCN(S(=O)(=O)c4cccc([N+](=O)[O-])c4)CC3)c2)cc1,3.3,0.69,1.2,.,i,.,3
CNC(=O)[C@@H]1C[C@H]1[C@@H](NC(=O)OCc1ccccc1)c1ccccc1,1.9,.,4.6,-3.0,i,-4,-2
CC(=O)CC(c1ccccc1)S(=O)(=O)c1ccc(C)cc1 (centres undefined),0.1,0.67,0.1,-0.9,.,6,-1
CC(=O)OC(C)=O,-1.0,0.68,1.6,0.3,i,0,-5
CCC(Sc1nnnn1-c1ccccc1)C(=O)Nc1nc2ccccc2s1 (centres undefined),5.1,0.72,0.8,-2.2,.,2,-26
COc1ccc(NC(=O)CN2C(=O)c3ccccc3S2(=O)=O)cc1S(=O)(=O)N1CCOCC1,2.6,0.69,0.3,.,i,.,1
Cc1nn(CC(=O)Nc2ccc3c(c2)nc2n3CCOC2)c(=O)c2ccccc12,3.5,0.68,1.4,4.4,.,-9,2
O=S(=O)(c1ccc(F)cc1)N1CCN(CCOc2ccccc2)CC1,3.6,0.7,2.3,15,i,-5,-4
CCN(CC)C(=O)C1(P(=O)(c2ccccc2)c2ccccc2)CCC1,4.7,0.67,2.5,-1.1,i,-5,-1

# High-throughput results from PubChem.
